RE007 growth inh – less growth of the S. pombe RE007 Vpr strain | AID 651644 | 360,000 tested, 0.21% active | S. pombe RE007 Vpr strain, BacTiter-Glo ATP luminescence, 24 h; control for the full effect not named in the record | Potency, µM (doses to about 92.2 µM), for the others: top-dose activity change, negative = less growth; active = well fitted falling curve with a large enough effect; inconclusive = small, poorly fitted or top-dose-only effect; inactive = no such curve, though single readings can be large or run the other way;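 note: % is set by controls: 0 for no effect and ±100 for the full control effect; nearly all actives have a fitted effect of over 50% in size; the assay follows cell death caused by Vpr and the record does not say whether a fall means rescue or toxicity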
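Fission yeast RE007 carrying one integrated HIV-1 vpr copy, seeded at OD 0.01 in PMG+AL medium with 23 nL pinned compound. Grown 24 h at 30 degrees; viability read by BacTiter-Glo luminescence after 5 min.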
NS1 function inh – influenza NS1 inhibition | Potency, µM (top dose mostly 46.1 µM), inactives show top-dose activity, positive = more growth | 270,000 tested, 0.4% active | AID 2326 | S. cerevisiae slowed by influenza A NS1, growth recovery by OD600; note: actives are rising curves; nearly all actives have a fitted effect of over 50% in size
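Growth recovery, yeast-based: influenza A NS1 expressed in S. cerevisiae causes slow growth, and suppressors are detected by OD600. The parent strain without NS1 is used as positive control.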
SARS PLpro yeast – SARS-CoV PLP inhibition in yeast | Potency, µM (top dose mostly 32.9 µM), for inactives: top-dose activity, positive = growth rescue | S. cerevisiae expressing SARS-CoV PLpro, growth rescue; control for the full effect not named in the record | AID 485353 | 330,000 tested, 0.19% active; note: 0% is about no effect; nearly all actives have a fitted effect of over 55% in size; growth read by luminescence after 48 h
MARV entry inh – Marburg virus entry inhibition; 300,000 tested, 1.8% active; Marburg virus pseudotyped entry inhibition, cell reporter; control for the full effect not named in the record; about a third of the inactives were read at about 46 µM; Potency, µM (titrated, usually from 37.8 µM), for inactives: top-dose activity change, negative = inhibition, hits mostly inhibitors; active = well fitted inhibition curve with a large enough effect; inconclusive = small, poorly fitted or top-dose-only effect, or effect the other way; inactive = flat fitted curve, though single readings scatter; tested in HEK293 cells; about a fifth of its hits are not listed in these tables; note: % is set by controls: 0 for no effect and ±100 for the full control effect; luciferase read-out
Cruzain noTriton – inhibitors of Trypanosoma cruzi cruzain without detergent; P25779; purified cruzain, Z-FR-AMC fluorescence, no detergent; Potency, µM, for inactives: max response, negative = inhibition, actives largely listed as inhibitors; 200,000 tested, 2.3% active; AID 1476; active = well fitted curve in the direction sought with a large enough effect; inconclusive = small, poorly fitted or top-dose-only effect, or another doubt; inactive = no such curve, though single readings can be large; an effect the other way counts as inactive or inconclusive;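 note: plate controls were enzyme without inhibitor for no effect and buffer without enzyme for full effect; nearly all actives have a fitted effect of over 40% in size; top concentration of the series not given in the record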
Target sequence (P25779 123-467 limits assumed): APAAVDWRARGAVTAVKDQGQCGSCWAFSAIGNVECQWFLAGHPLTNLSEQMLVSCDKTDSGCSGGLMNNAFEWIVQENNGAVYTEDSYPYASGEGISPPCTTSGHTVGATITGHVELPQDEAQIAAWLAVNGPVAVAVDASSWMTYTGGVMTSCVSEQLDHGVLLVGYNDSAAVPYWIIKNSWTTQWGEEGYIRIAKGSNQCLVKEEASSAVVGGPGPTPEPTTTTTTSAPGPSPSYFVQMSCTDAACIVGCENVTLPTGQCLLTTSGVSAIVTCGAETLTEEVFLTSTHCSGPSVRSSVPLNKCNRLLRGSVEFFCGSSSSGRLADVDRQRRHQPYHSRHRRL
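Purified cruzain at 1.5 nM, pre-incubated 15 min with compound at room temperature in 100 mM sodium acetate pH 5.5, 5 mM DTT, 0.00005% Triton X-100. Reaction started with 2 uM Z-FR-AMC; AMC fluorescence increase over 60 s gives rate.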
LASV entry inh – blocks Lassa virus binding to or entry into cells; Lassa virus pseudotype entry inhibition, cell reporter; control for the full effect not named in the record; Potency, µM (titrated, usually from 37.9 µM), for the others: at the top dose activity change, negative = inhibition, most hits filed as inhibitors; AID 540256; 300,000 tested, 1.2% active; active means well fitted inhibition curve with a large enough effect; inconclusive means small, poorly fitted or top-dose-only effect, or effect the other way; inactive means flat fitted curve, though single readings scatter; tested in HEK293 cells; note: % is set by controls: 0 for no effect and ±100 for the full control effect; nearly all actives have a fitted effect of over 50% in size; luciferase read-out
StopGo reporter – FMDV 2A StopGo reporter, luciferase signal | 410,000 tested, 1.2% active | human cells with a luciferase reporter of 2A StopGo recoding; control for the full effect not named in the record | Potency, µM (doses to about 57.9 µM), for the others: at the top dose signal change, negative = less light | AID 1159524; active = well fitted falling curve with a large enough effect; inconclusive = small, poorly fitted or top-dose-only effect; inactive = no such curve, though single readings can be large or run the other way; tested in HEK293T cells; note: % is set by controls: 0 for no effect and ±100 for the full control effect; nearly all actives have a fitted effect of over 45% in size; luciferase light after 4 h
Cruzain Triton – cruzain (T. cruzi) inhibition with detergent | purified cruzain, Z-FR-AMC fluorescence, 0.01% Triton | Potency, µM, for the others: max response, negative = inhibition, usual class: inhibitors | 200,000 tested, 0.43% active | P25779; active = well fitted curve in the direction sought with a large enough effect; inconclusive = small, poorly fitted or top-dose-only effect, or another doubt; inactive = no such curve, though single readings can be large; an effect the other way counts as inactive or inconclusive;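 note: plate controls were neutral wells for no effect and buffer without enzyme for full effect; nearly all actives have a fitted effect of over 40% in size; top concentration of the series not given in the record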
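Detergent-containing arm of a paired screen for aggregation-based inhibition: 0.01% Triton X-100 present. Cruzain at 1.5 nM cleaved 2 uM Z-FR-AMC at pH 5.5 with 5 mM DTT; AMC fluorescence gain over 60 s measured activity.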
* hit, by the source's call; & = joins results of further samples; [ ] = dose if it differs, or a comment. Unless noted, calls come from the whole dose curve; as a rule, active means well fitted rising curve with a large enough effect; inconclusive means small, poorly fitted or top-dose-only effect; inactive means no such curve, though single readings can be large or run the other way. Potency is the fitted concentration of half-maximal effect. Rows were taken by chance. About 4.6% of those tested had a hit in this group.

For O=C(c1ccco1)N1CCN(C(=O)c2ccccc2NS(=O)(=O)c2ccc(F)cc2)CC1 the results were RE007 growth inh -1%, SARS PLpro yeast -1%, MARV entry inh -4%[46.1 µM], LASV entry inh -20%[46.1 µM] and StopGo reporter -2%.
`Cc1cccc(C)c1NC(=O)CN(C)C(=O)c1cccc(S(=O)(=O)N2CCN(c3ccc(F)cc3)CC2)c1` gave RE007 growth inh -9%, SARS PLpro yeast -3%, MARV entry inh inconclusive, LASV entry inh inconclusive and StopGo reporter inconclusive.
For Cc1c(C(N)=O)sc2ncn(CC(=O)N3CCC(C)CC3)c(=O)c12 the results were RE007 growth inh -6%, NS1 function inh 5%, SARS PLpro yeast -1%, MARV entry inh 3%, Cruzain noTriton 3%, LASV entry inh 0%, StopGo reporter 6% and Cruzain Triton 2.4%.
`Cc1noc(NS(=O)(=O)c2ccc(NC(=O)CCn3c(=O)oc4ccccc43)cc2)c1C` gave RE007 growth inh 20%, NS1 function inh 8%, SARS PLpro yeast -21%, Cruzain noTriton 0%, StopGo reporter -7% and Cruzain Triton -0.9%.
Screening CC1CCC(C(C)C)C(OC(=O)Cn2c(-c3ccc(Cl)cc3)[n+](C)c3ccccc32)C1 (stereo not drawn) returned RE007 growth inh 17%, NS1 function inh -2%, SARS PLpro yeast -3% and StopGo reporter inconclusive.
Screening Cn1c(=O)c2cc(NCc3ccccc3)nnc2n(C)c1=O returned RE007 growth inh 9%, NS1 function inh -26%, SARS PLpro yeast 17%, MARV entry inh -12%, Cruzain noTriton -10%, LASV entry inh -13%, StopGo reporter -17% and Cruzain Triton -4.6%.
For N#Cc1sc(NCc2cccc(Cl)c2)nc1Cl the results were RE007 growth inh 5%, NS1 function inh -71%, SARS PLpro yeast -8%, MARV entry inh inconclusive, LASV entry inh inconclusive and StopGo reporter -1%.
Cc1ccc(NC(=O)CN(c2ccc(Cl)cc2)S(=O)(=O)c2cc([N+](=O)[O-])ccc2Cl)c(C)c1 was read as RE007 growth inh 6%, NS1 function inh 6%, SARS PLpro yeast 0%, MARV entry inh -2%[46.1 µM], LASV entry inh -7% and StopGo reporter 6%.
Screening CC(NC(=O)c1ccc(Br)cc1)c1ccccc1 (stereo not drawn) returned NS1 function inh -6%, SARS PLpro yeast inconclusive, MARV entry inh -9%, Cruzain noTriton -8%, LASV entry inh -1%, StopGo reporter -25% and Cruzain Triton -1.9%.
For Cc1ccccc1N1CCN(C(=O)c2ccccc2NC(=O)C2CC=CCC2C(=O)O)CC1 (stereo not drawn) the results were RE007 growth inh -14%, NS1 function inh 9%, SARS PLpro yeast -8%, MARV entry inh inconclusive, Cruzain noTriton 13%, LASV entry inh 0%, StopGo reporter -12% and Cruzain Triton -5.8%.
For COc1ccccc1N1CCN(C(=O)c2noc(C(C)C)c2[N+](=O)[O-])CC1 the results were RE007 growth inh -2%, NS1 function inh -17%, SARS PLpro yeast 1% and StopGo reporter -5%.
`CCOc1ccc(Cc2nnc(SCC(=O)c3ccc(OC)cc3)o2)cc1` gave RE007 growth inh -12%, NS1 function inh -59%, SARS PLpro yeast 4%, MARV entry inh -24%, Cruzain noTriton -1%, LASV entry inh inconclusive, StopGo reporter inconclusive and Cruzain Triton -4.6%.
`COc1ccc(CNC(=O)Cn2nc(C(F)(F)F)c(Br)c2C)cc1` gave RE007 growth inh -8%, NS1 function inh 11%, SARS PLpro yeast 0% and StopGo reporter -15%.
For O=[N+]([O-])c1cc(/C=N/O)ccc1Oc1ccccc1Cl the results were RE007 growth inh -5%, NS1 function inh -36%, SARS PLpro yeast -2%, MARV entry inh -7%[46.1 µM], LASV entry inh 11% and StopGo reporter 0%.
Cc1cc([N+](=O)[O-])nn1CC(=O)NCc1ccccc1 was read as RE007 growth inh 6%, NS1 function inh 4%, SARS PLpro yeast -8% and StopGo reporter 2%.
C[N+]1=C(/C=C/Nc2ccccc2Cl)C(C)(C)c2ccccc21 was read as RE007 growth inh -16%, NS1 function inh -8%, SARS PLpro yeast -7%, MARV entry inh inconclusive, Cruzain noTriton -8%, LASV entry inh -28%, StopGo reporter -28% and Cruzain Triton -7.1%.
For O=C(CCn1c2c(c3ccccc31)CCCC2)NNC(=O)c1cccc([N+](=O)[O-])c1 the results were RE007 growth inh -5%, NS1 function inh 3%, SARS PLpro yeast 16%, MARV entry inh -16%, Cruzain noTriton inconclusive, LASV entry inh -1%, StopGo reporter -15% and Cruzain Triton -8.3%.
Screening CCc1ccc(N(CC(=O)NC)S(C)(=O)=O)cc1 returned RE007 growth inh -12%, NS1 function inh -7%, SARS PLpro yeast 1%, MARV entry inh 24%[46.1 µM], Cruzain noTriton -7%, LASV entry inh inconclusive, StopGo reporter 5% and Cruzain Triton -0.3%.
Screening COc1ccccc1N1CCN(c2ncnc3onc(C)c23)CC1 returned Cruzain noTriton -12%, LASV entry inh -3%[46.1 µM], StopGo reporter -15% and Cruzain Triton -1.4%.
`Cc1ccc(Cl)cc1NC(=O)N(C)CCO` gave RE007 growth inh -7%, NS1 function inh 0%, SARS PLpro yeast 0% and StopGo reporter -1%.
O=C(CSc1nccn1Cc1ccco1)Nc1ccc(F)cc1 was read as RE007 growth inh -25%, NS1 function inh -8%, SARS PLpro yeast -1%, MARV entry inh inconclusive, Cruzain noTriton -10%, LASV entry inh 7%, StopGo reporter 19%&23% and Cruzain Triton -1.4%.
Screening COc1ccc(-c2cc3nc(C)c(CCC(=O)NC(C)CCc4ccco4)c(C)n3n2)c(OC)c1 (stereo not drawn) returned RE007 growth inh -13%, NS1 function inh 12%, SARS PLpro yeast -6%, MARV entry inh inconclusive, Cruzain noTriton inconclusive, LASV entry inh inconclusive, StopGo reporter -15% and Cruzain Triton -28%.
For CCc1cccc(NS(=O)(=O)c2ccc3c(c2)NC(=O)C(C)S3)c1 (stereo not drawn) the results were RE007 growth inh -9%, NS1 function inh 14%, SARS PLpro yeast 4% and StopGo reporter 2%.
Screening Cc1cc(F)ccc1N1CCC(N2CCN(C(C)C)C(CCO)C2)CC1 (stereo not drawn) returned RE007 growth inh -17%, NS1 function inh -9%, SARS PLpro yeast -4%, MARV entry inh inconclusive, LASV entry inh -24% and StopGo reporter -7%.
COc1cc2c(cc1NC(=O)CSc1ccc(Cl)cc1)oc1ccccc12 was read as NS1 function inh 0%, SARS PLpro yeast 23%, MARV entry inh 0%, Cruzain noTriton -16%, LASV entry inh 5%, StopGo reporter 3% and Cruzain Triton -4.3%.
`CCCOc1ccc(C(=O)Nc2cc(-c3nc4cc(C)cc(C)c4o3)ccc2C)cc1` gave Cruzain noTriton 0%, LASV entry inh 13%[46.1 µM], StopGo reporter 16% and Cruzain Triton 0.1%.
Cc1cc(C2CCCCC2)n(O)c(=O)c1 was read as RE007 growth inh inconclusive, Cruzain noTriton -3%&-9%, StopGo reporter -28%&-5% and Cruzain Triton -2.2%&-3.6%.
COc1ccccc1N(CC(=O)NC1CCCC1)S(=O)(=O)c1cccc(C(F)(F)F)c1 was read as RE007 growth inh 2%, SARS PLpro yeast 7%, MARV entry inh -4%, LASV entry inh inconclusive and StopGo reporter -11%.
`CCC(=O)NC(=S)Nc1c(C)cc(Br)cc1C` gave RE007 growth inh -13%, NS1 function inh 12%, SARS PLpro yeast 1%, MARV entry inh -27%[46.1 µM], LASV entry inh -25% and StopGo reporter -10%.
Screening Cc1c(Cl)cccc1NC(=O)C1CCN(c2cnccn2)CC1 returned RE007 growth inh -4%, NS1 function inh 3%, SARS PLpro yeast -2%, MARV entry inh 14%[46.1 µM], LASV entry inh -1%[46.1 µM] and StopGo reporter 7%.
CCN(CC)S(=O)(=O)c1ccc(N2CCOCC2)c(C(=O)O)c1 was read as RE007 growth inh -6%, NS1 function inh 5%, SARS PLpro yeast 7%, MARV entry inh 6%[46.1 µM], Cruzain noTriton -9%, LASV entry inh -6%, StopGo reporter -28% and Cruzain Triton 4.4%.
For O=C(Cn1ncc2c3ccccc3n(Cc3ccc(Cl)cc3)c2c1=O)NCCCc1ccccc1 the results were MARV entry inh inconclusive, Cruzain noTriton -3%, LASV entry inh 1%[46.1 µM], StopGo reporter 2% and Cruzain Triton -2.5%.
Screening CCc1ccc(NC(=O)C(=O)NCCOc2ccccc2Cl)cc1 returned RE007 growth inh 25%, SARS PLpro yeast -4%, MARV entry inh 2%[46.1 µM], LASV entry inh -19% and StopGo reporter -10%.
`COc1ccccc1CNC(=O)c1cc2cc3ccc(Cl)cc3nc2o1` gave MARV entry inh 22%[46.1 µM], Cruzain noTriton 0%, LASV entry inh inconclusive, StopGo reporter 25% and Cruzain Triton 0.1%.
`O=C(CCCc1c[nH]c2ccccc12)N1CCN(S(=O)(=O)c2cccs2)CC1` gave RE007 growth inh 17%, NS1 function inh -20%, SARS PLpro yeast -3%, MARV entry inh -27%, Cruzain noTriton -9%, LASV entry inh -28%, StopGo reporter 25µM* and Cruzain Triton -3.3%.
`Cc1cccc(C)c1NC(=O)CN(C)CC(=O)Nc1sc2c(c1C(N)=O)CCC2` gave RE007 growth inh -4%, SARS PLpro yeast -2%, MARV entry inh inconclusive, LASV entry inh -26% and StopGo reporter -15%.
Screening Cc1ccc(S(=O)(=O)N2CCN(C(=O)COC(=O)CNC(=O)c3ccccc3)CC2)c(C)c1 returned RE007 growth inh -15%, SARS PLpro yeast 1%, MARV entry inh 9%[46.1 µM], LASV entry inh 23% and StopGo reporter -21%.
Screening CCS(=O)(=O)Nc1cccc(-c2cn3c(n2)SCC3)c1 returned RE007 growth inh 1%, NS1 function inh -1%, SARS PLpro yeast -13% and StopGo reporter -14%.
`COc1ccccc1N1CCN(CC(=O)c2c(N)n(C)c(=O)n(C)c2=O)CC1` gave RE007 growth inh -5%, SARS PLpro yeast 7%, MARV entry inh -3%[14.2 µM], LASV entry inh 7% and StopGo reporter -13%.

Compound activity (PubChem BioAssay)
